# Bioassay records: PubChem BioAssay, several laboratories
# PABP FP inh = blocks human PABP binding to poly(A) RNA | fluorescence polarization | inhibition, % at 35 µM | hit rate 1% among 290,000;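 active = 50% or more with normal probe brightness, or confirmed in later tests; inconclusive = above 50% with abnormal brightness, or retests that disagree; inactive = below 50% or failed in later tests; about a fifth of its hits are not listed in these tables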;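 note: calls also rest on retests at 20 µM and on dose response follow-up; controls were probe without protein and protein plus probe with vehicle; some compounds called inactive have numbers as strong as hits; many hits fall short of the cut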
# eIF4H FP inh = inhibitors of RNA binding by human eIF4H | eIF4H fluorescence polarization binding assay | hit rate 0.94% among 290,000 | inhibition, % at 35 µM;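 active = 50% or more with normal probe brightness, or confirmed in later tests; inconclusive = above 50% with abnormal brightness, or retests that disagree; inactive = below 50% or failed in later tests; about a fifth of its hits are not listed in these tables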;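 note: calls also rest on retests at 20 µM and on dose response follow-up; 0% = protein and probe with vehicle and 100% = probe without protein; strong numbers were not always called active; many hits fall short of the cut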
# MT1-MMP act inh = MT1-MMP (human) activation inhibition; hit rate 0.061% among 360,000; AID 651647; HT1080 RFP-PRO-GFP cells, GFP/RFP ratio fluorescence, overnight; percent of plate control window, DMSO zero; GFP/RFP ratio change, % at 20 µM; P50281;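 active = GFP/RFP ratio change of at least 30% with cell ATP level not reduced by more than half and red fluorescence within 50% of control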; note: strong numbers were not always called active
#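 Read-out: GFP/RFP fluorescence ratio; Test system: RFP-PRO-GFP reporter HT1080 cells; Compound dosing: single-point 20 µM compound, 1% DMSO; Times: overnight compound exposure at 37 °C.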
# HIV Env fusion = inhibitors of HIV Env-mediated cell fusion; HeLa-JRFL Env/CEM21 cell fusion, luciferase; inhibition, % at 12.3 µM; hit rate 1.1% among 360,000;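 active = mean replicate inhibition score of at least 50 and every replicate individually at or above 50; inconclusive = only one of the two criteria met; inactive = mean below 50 and not all replicates reaching 50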;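 note: 0% = plate neutral controls and 100% = maraviroc near 300 nM; one replicate is shown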
# CSC inhib = blocks cancer stem cells; cancer stem cell-like cells viability, luminescence; inhibition, % at 7.5 µM; hit rate 1.1% among 300,000; AID 2717;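 active = mean at 75% or more and at least half the replicates too; inconclusive = mean and replicates disagree; tested in HMLE shEcad cells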;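 note: 0% = median of negative and 100% = median of positive control wells; the first replicate is given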
# Yeast UUG start = modulators of start codon recognition fidelity in yeast; S. cerevisiae UUG-firefly luciferase reporter, luminescence/redox ratio; activity score, % at 18.7 µM; hit rate 0.13% among 350,000; AID 602363;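 active = replicate mean at a twofold rise or more, about +100% in these data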;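 note: firefly luciferase made from a UUG start codon reports start codon fidelity; reporter light over untreated wells divided by growth signal over untreated wells; some hits fall short of that in this replicate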
# Rce1 inhib = yeast Ras-converting enzyme inhibition; Q03530; yeast membranes, quenched prenylated peptide cleavage fluorescence; calls only; hit rate 0.27% among 290,000; AID 2563;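 active = fall in fluorescence gain of 50% or more versus controls, with final raw signal at or below 3038400; inconclusive = same 50% fall but final raw signal above 3038400; inactive = fall in fluorescence gain under 50%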;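 note: plate controls were neutral control wells for no effect and wells lacking membranes for full effect; tested at 10 µM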
# Target sequence (Q03530 whole entry, looked up): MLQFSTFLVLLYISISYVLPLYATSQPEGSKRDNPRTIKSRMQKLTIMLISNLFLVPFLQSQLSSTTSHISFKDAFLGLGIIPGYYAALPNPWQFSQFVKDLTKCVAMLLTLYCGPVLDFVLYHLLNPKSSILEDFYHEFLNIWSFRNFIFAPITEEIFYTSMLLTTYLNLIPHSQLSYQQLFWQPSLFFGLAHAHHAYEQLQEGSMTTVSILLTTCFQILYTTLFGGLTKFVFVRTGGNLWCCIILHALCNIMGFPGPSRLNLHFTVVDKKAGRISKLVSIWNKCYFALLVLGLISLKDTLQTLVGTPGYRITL
# MT1-MMP act inh RFP = also measured in MT1-MMP act inh; calls as there; RFP signal change, %; measured here: RFP expression control read;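 0 = vehicle wells; hits needed this value within 50% of zero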
# The depositor's hits bear a star; i = inactive; ? = inconclusive; nt = not tested or not shown; + = active, no number; & = joins results of further samples.
SMILES,PABP FP inh,eIF4H FP inh,MT1-MMP act inh,MT1-MMP act inh RFP,HIV Env fusion,CSC inhib,Yeast UUG start,Rce1 inhib
CCNC(=O)NC(=O)C(C)OC(=O)[C@H](C)NS(=O)(=O)c1c(C)c(C)cc(C)c1C (stereo not given in full),-9,-2,-3,-1,3,-5,-11,i
COc1ccc(CNC(=O)C(C)NCc2ccc(S(N)(=O)=O)cc2)cc1 (stereo not given),2,-7,-1,1,3,-19,-21,i
O=C(NCC1CCCO1)c1ccc(OC2CCN(C(=O)C3CC3)CC2)cc1 (stereo not given),3,5,-4,2,-1,nt,1,i
COCCOC(=O)c1c(C)nc(SCC(=O)Nc2ccc(OC)cc2)c(C#N)c1-c1ccco1,-4,-3,6,-3,nt,-14,-6,i
Nc1[nH]c(=S)nc2nc(-c3ccccc3)c(-c3ccccc3)nc12,13,8,1,-5,10,10,-26,i
CNc1nc(N)nc(OC(C(F)(F)F)C(F)(F)F)n1,0,-2,-2,1,4,-11,nt,i
COCCNC(=O)CNC(c1ccccc1)c1ccccc1,-7,-8,nt,nt,nt,nt,nt,i
Cc1ccc(NC(=O)CSc2nnc([C@H](C)NC(=O)OC(C)(C)C)o2)c(C)c1,-1,-4,0,-2,21,3,214*,i
O=C(CSc1nnc(CCCN2C(=O)c3cccc4cccc(c34)C2=O)n1-c1ccccc1)NCCCO,7,3,-6,1,nt,-9,-10,i
Cn1c(Cc2ccccc2)nnc1SCCC(=O)Nc1ccccc1,49,1,-4,3,nt,-9,-20,i
c1ccc(-n2c(-c3ccncc3)nnc2N2CCOCC2)cc1,-4,1,-3,0,nt,nt,-21,nt
OCCNCc1cccc2ccccc12,-4,-1,0,6,-16,nt,nt,i
Brc1ccc(C2=NC(Cc3ccccc3)CO2)cc1 (stereo not given),14,-4,2,1,-43,12,-21,i
CN1CCN(C(c2ccccn2)c2cc(Cl)c3cccnc3c2O)CC1 (stereo not given),-2,28,-1,-2,25,62,nt,i
COCCCNC(=O)/C(C#N)=C1\N=C(NC(=O)c2cccs2)c2ccccc21,1,-7,-11,1,1,2,nt,i
O=C(NCCC1=CCCCC1)c1ccc(-n2cncn2)c([N+](=O)[O-])c1,nt,nt,-3,-4,2,4,nt,i
O=C(CSc1nc(-c2ccccc2)cs1)Nc1cccc([N+](=O)[O-])c1,9,-14,0,-10,20,16,nt,i
CCOC(=O)C1Nc2ccc(C(=O)O)cc2C2C=CCC12 (stereo not given),94*,96*,-7,2,-14,-8,3,i
CCN(CC)C(=O)C(=O)Nc1ccc(OCc2ccccc2)cc1,-8,2,1,4,-9,0,-5,i
Cc1ccsc1/C=N/NC(=O)c1nnn(-c2nonc2N)c1C(C)C,-7,-11,0,1,0,-9,-6,+

# 13 successive compounds from above, quoted:
SMILES,PABP FP inh,eIF4H FP inh,MT1-MMP act inh,MT1-MMP act inh RFP,HIV Env fusion,CSC inhib,Yeast UUG start,Rce1 inhib
CNc1nc(N)nc(OC(C(F)(F)F)C(F)(F)F)n1,0,-2,-2,1,4,-11,nt,i
COCCNC(=O)CNC(c1ccccc1)c1ccccc1,-7,-8,nt,nt,nt,nt,nt,i
Cc1ccc(NC(=O)CSc2nnc([C@H](C)NC(=O)OC(C)(C)C)o2)c(C)c1,-1,-4,0,-2,21,3,214*,i
O=C(CSc1nnc(CCCN2C(=O)c3cccc4cccc(c34)C2=O)n1-c1ccccc1)NCCCO,7,3,-6,1,nt,-9,-10,i
Cn1c(Cc2ccccc2)nnc1SCCC(=O)Nc1ccccc1,49,1,-4,3,nt,-9,-20,i
c1ccc(-n2c(-c3ccncc3)nnc2N2CCOCC2)cc1,-4,1,-3,0,nt,nt,-21,nt
OCCNCc1cccc2ccccc12,-4,-1,0,6,-16,nt,nt,i
Brc1ccc(C2=NC(Cc3ccccc3)CO2)cc1 (stereo not given),14,-4,2,1,-43,12,-21,i
CN1CCN(C(c2ccccn2)c2cc(Cl)c3cccnc3c2O)CC1 (stereo not given),-2,28,-1,-2,25,62,nt,i
COCCCNC(=O)/C(C#N)=C1\N=C(NC(=O)c2cccs2)c2ccccc21,1,-7,-11,1,1,2,nt,i
O=C(NCCC1=CCCCC1)c1ccc(-n2cncn2)c([N+](=O)[O-])c1,nt,nt,-3,-4,2,4,nt,i
O=C(CSc1nc(-c2ccccc2)cs1)Nc1cccc([N+](=O)[O-])c1,9,-14,0,-10,20,16,nt,i
CCOC(=O)C1Nc2ccc(C(=O)O)cc2C2C=CCC12 (stereo not given),94*,96*,-7,2,-14,-8,3,i

# Continued.
SMILES,PABP FP inh,eIF4H FP inh,MT1-MMP act inh,MT1-MMP act inh RFP,HIV Env fusion,CSC inhib,Yeast UUG start,Rce1 inhib
COc1ccccc1CC(=O)N1CCOCC1,0,-1,1,1,19,-10,-14,i
CCOC(=O)C(NCc1ccco1)(NC(=O)c1ccc(OC)cc1)C(F)(F)F (stereo not given),1,11,5,3,nt,-4,-10,i
O=C(COC(=O)c1ccccc1C(F)(F)F)NC(=O)NCc1ccco1,nt,nt,4,4,8,-19,-13,nt
COc1cccc(CNCCOCCO)c1OC,-6,-4,1,7,nt,9,-3,i
Cc1ccc(NC(=O)Cn2cnc3c(oc4nc5c(cc43)COC(C)(C)C5)c2=O)cc1,8,-5,-4,-2,0,-9,nt,i
Cc1cccc(C(=O)Oc2ccccc2/C=N/Nc2ccc([N+](=O)[O-])cc2)c1,11,-10,-8,-9,nt,33,-17,nt
O=c1[nH]c2ccccc2n1CCCOc1ccccc1,14,4,-7,-1,nt,-9,-10,i
Cc1cnc(C(=O)OCC(=O)N2CC(C)CC(C)C2)cn1 (stereo not given),nt,nt,-3,4,nt,-16,-8,nt
CC(=O)c1cccc(NC(=O)C2=CC(c3ccco3)=NS(=O)(=O)N2C)c1,nt,nt,2,2,0,-5,-11,i
Cc1nn(CC(=O)N2c3ccccc3NC(=O)C2(C)C)c(C)c1[N+](=O)[O-],15,4,-5,-4,18,-3,nt,i
COc1ccccc1NC(=S)N(CCN(C)C)C(C)c1ccncc1 (stereo not given),-6,-4,-1,5,-10,-7,-25,i
Cc1ccc(N2C(=S)SC3CS(=O)(=O)CC32)cc1 (stereo not given),-9,9,0,0,-44,-15,nt,i
CCC(NC(=O)COC(=O)C1CC2CCCC(C1)C2=O)c1ccc(Br)cc1 (stereo not given),nt,nt,2,4,8,-15,4,i
Cc1ccc(NC(=O)N2CCC(=O)N2)cc1,0,-4,3,-1,-53,-6,11,i
C/C(CC(=O)Nc1ccccn1)=N\NC(=O)c1ccccc1O,-1,-2,-21,-17,32,nt,-13,i
O=C(O)C(Cc1ccccc1)N=C(NS(=O)(=O)c1ccccc1)c1ccccc1 (stereo not given),nt,nt,-4,-3,-1,-17,-14,nt
CCOC(=O)N1CCN(C(=O)CS(=O)Cc2nc(-c3cccc(C)c3)oc2C)CC1 (stereo not given),7,1,2,-2,-9,17,10,i
O=C(CSc1nnc(-c2c[nH]c3ccccc23)n1CC1CCCO1)Nc1ccc2c(c1)OCCO2 (stereo not given),2,0,-3,1,nt,-3,-4,i
Cc1ccsc1C(=O)N1CCN(S(=O)(=O)c2cccs2)CC1,25,0,-2,8,10,-5,-8,i
O=C(O)C1CCN(Cc2cccnc2)CC1,-9,-8,-2,0,22,-6,nt,i
C/C(=N\Nc1ccccn1)c1cccs1,-13,-3,0,2,-23,0,nt,i
C=CCc1ccccc1OCC(O)CNC(=O)c1ccccc1C(=O)O (stereo not given),-7,-6,2,4,20,-4,-7,i
O=C1CC(N2CCN(c3ccc(F)cc3)CC2)C(=O)N1Cc1ccc(N2CCCC2=O)cc1 (stereo not given),-4,5,5,-8,18,nt,-16,i
Nc1c(C(=O)OCC2CCCO2)c2nc3ccccc3nc2n1-c1ccc2c(c1)OCCO2 (stereo not given),1,4,nt,nt,nt,-7,nt,i
COC(=O)[C@H]1CCCN1C(=O)Nc1cccc(Oc2c(F)c(F)c(F)c(F)c2F)c1,-8,0,4,0,-21,nt,-4,nt
COc1cc(C(=O)NNC(=O)CCOc2ccccc2C)cc(OC)c1OC,nt,nt,-1,-1,i,-5,-11,nt
CCON1C(=O)C(C)(C)N(OCC)C(=O)C1(C)C,-11,-5,3,7,-7,-2,nt,i
Cc1c(C(=O)O)cnc2c([N+](=O)[O-])cnn12,4,10,-3,-2,7,1,-11,i
O=C(CCN1CCN(c2ccc(F)cc2)CC1)Nc1ccccc1F,-4,-1,2,2,nt,nt,-18,i
Cc1cc(C)cc(N=c2c([N+](=O)[O-])nn(-c3ccc(Cl)cc3)n2O)c1,?,5,-3,-7,28,16,-24,i
CCOC(=O)c1nn(-c2ccc(F)cc2)c(C)c1C(C)=O,0,0,5,5,nt,-11,-2,i
Cc1ccc(-c2nc(SCC(=O)N(C)C3CCS(=O)(=O)C3)[nH]c2-c2ccc(C)cc2)cc1 (stereo not given),0,-6,2,2,20,-9,-10,+
CC(Sc1nnnn1C1CC1)C(=O)N1CC(=O)Nc2ccccc21 (stereo not given),nt,nt,-3,-2,nt,-8,-6,nt
O=C(CCN1CCN(C(=O)c2ccccc2)CC1)c1ccc(Br)cc1,-11,0,2,3,21,14,-7,i
CCN1C(=O)c2ccc(C(=O)Nc3ccc4c(c3)OCO4)cc2C1=O,14,-3,0,4,-18,-3,-18,i
CSc1nc2ccc(NC(=O)c3ccc(=O)[nH]c3)cc2s1,12,0,0,0,-36,6,-18,i
CC(C)(C)c1ccc(C(=O)NCC(=O)NCc2ccccn2)cc1,nt,nt,-1,2,-6,nt,-17,nt
CC(C)COC(=O)N(C)C[C@@H]1OCc2cnnn2CCCC(=O)N([C@@H](C)CO)C[C@H]1C,nt,nt,-1,1,8,nt,-9&1&-5,nt
Cc1ccc(NC(=S)/C(C#N)=C2/Nc3ccccc3S2)cc1,nt,nt,2,-21,12,nt,-35,nt
CC(C)C(=O)Nc1ccc(C(=O)CSc2nnc(C3CC3)n2C2CC2)cc1,nt,nt,3,1,nt,-13,-19,nt
Cc1ccc(CNC(=O)COC(=O)c2cc3c(s2)CCC(C)C3)cc1 (stereo not given),-14,-6,5,5,-15,8,nt,i
CCN(CC(=O)Nc1ccccc1C(F)(F)F)C(=O)C1CC(=O)N(Cc2ccccc2)C1 (stereo not given),nt,nt,-2,5,nt,-11,-14,i
CC(NC(=O)CSc1nc(=O)cc(N)n1CCc1ccccc1)c1ccccc1 (stereo not given),-1,-7,nt,nt,-15,-14,4,nt
O=C(COc1ccccc1F)c1ccc(O)cc1O,4,8,-1,9,-91,-3,-10,i
CC1CCCN(C(=O)CNC(=O)c2cccs2)C1 (stereo not given),nt,nt,0,-1,nt,1,-7,nt
Cc1c(C)n(CCC#N)c2ccccc12,6,-7,1,4,nt,5,-10,i
Cc1ccc2c(c1)Oc1ccccc1C=C2C(=O)O,2,-3,-2,4,10,-7,15,i
COc1ccc(NC(=O)N(Cc2cc3cc(OC)c(OC)cc3[nH]c2=O)CC2CCCO2)cc1 (stereo not given),19,-4,0,-2,3,nt,nt,i
CCS(=O)(=O)c1ccc(O)c(NC(=O)COc2ccccc2)c1,4,0,0,3,-8,-3,-27,i
Cc1cc(C)n(CCc2nc(-c3cccs3)cs2)n1,-3,2,2,-1,nt,0,-23,i
Cc1ccc(C)c(OCCCC(=O)NC2CCCCC2)c1,-3,-2,-3,-3,7,nt,8,i

# These rows are one share of the data, so the mix of outcomes need not match the whole.
